Vif A3G: HIV-1 Vif–A3G interaction blockers – biochemical, TR-FRET, GST-Vif 1-94, biotin-A3G peptide, dose response retest, primary screen (AID 1117319) | actives 0.57% (n = 260,000) | one-dose inhibition, %; IC50 in µM for titrated hits | TR-FRET GST-Vif / biotin-A3G peptide binding; higher % means a stronger effect; test concentration not given here; strong numbers were not always called active;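 active = above the screen mean plus three standard deviations and confirmed in dose response; inconclusive = results disagree or hit not tested in dose response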;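 note: Vif residues 1-94 fused to GST binding biotinylated APOBEC3G peptide 110-148; 0% = full assay without inhibitor and 100% = GST in place of GST-Vif; retest series ran down from 100 µM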
Bfl-1 A1 inh: inhibitors of the anti-apoptotic protein A1, read as caspase activation; MEF A1-2A-BIM cells, Caspase-Glo 3/7 luminescence, 3 h; percent of clofoctol response, vehicle zero; caspase activation, % (concentration not given with the values); actives 0.066% (n = 330,000); AID 2462;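 active = over half of replicate activation scores above 10%, or exactly half above 10 with the replicate mean above 10; inconclusive = replicate mean below 10 yet half the replicates above 10; inactive = over half of replicates below 10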;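 note: wells of about 30 µL received 50 nL stock; many hits fall short of the cut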
Beta cell apopt: beta cell apoptosis inhibition; INS-1E cytokine-induced death, ATP luminescence, 48 h; percent of positive-control rescue, neutral wells zero; actives 0.8% (n = 300,000); protection from apoptosis, % (no concentration beside the values);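 active = all replicates at 75% or more, or half of them and the mean; inconclusive = half reach 75% but not the mean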;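 note: 0% = cytokine-treated negative control wells and 100% = positive control rescue; higher means more ATP so stronger rescue from cytokine killing; wells of about 40 µL received 100 nL stock; the first replicate is given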
MLL AF4-AF9 inh: MLL-AF4/AF9 protein interaction inhibition; inhibition, % at 10 µM; P42568; AlphaScreen, biotin-AF4 peptide binding to FLAG-AF9; actives 0.47% (n = 350,000); AID 651704;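 active = every replicate reaching a set inhibition limit, whatever the replicate mean, cut at about 25% in these data; inconclusive = mean inhibition reaches that limit but some replicates miss it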;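 note: 0% = plate neutral control median and 100% = total signal loss; the record names both 10 and 1 µM as test concentration; the first replicate is given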
Target sequence (P42568 whole entry, looked up): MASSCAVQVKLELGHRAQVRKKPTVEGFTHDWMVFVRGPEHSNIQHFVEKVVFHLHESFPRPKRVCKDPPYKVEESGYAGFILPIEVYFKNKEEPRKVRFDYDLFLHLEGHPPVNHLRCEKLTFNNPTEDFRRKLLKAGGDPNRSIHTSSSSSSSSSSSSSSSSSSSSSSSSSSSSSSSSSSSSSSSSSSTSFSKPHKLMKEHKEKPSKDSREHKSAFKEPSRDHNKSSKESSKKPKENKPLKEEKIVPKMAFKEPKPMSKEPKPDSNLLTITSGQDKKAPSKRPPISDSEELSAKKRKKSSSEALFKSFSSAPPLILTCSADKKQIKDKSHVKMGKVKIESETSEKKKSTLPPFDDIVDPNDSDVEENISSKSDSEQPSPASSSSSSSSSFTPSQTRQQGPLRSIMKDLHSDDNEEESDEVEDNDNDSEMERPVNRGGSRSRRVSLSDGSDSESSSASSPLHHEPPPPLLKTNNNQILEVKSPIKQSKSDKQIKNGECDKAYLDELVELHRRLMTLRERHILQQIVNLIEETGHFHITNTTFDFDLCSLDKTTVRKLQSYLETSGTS
T cruzi repl: blocks replication of Trypanosoma cruzi. AID 1885. actives 1.4% (n = 300,000). T. cruzi beta-gal in NIH3T3, luminescence, 90 h. inhibition, % (no concentration beside the values);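 active = mean inhibition across valid replicates above about 55%, limit read from the data; inconclusive = mean below that limit but half or more replicates reach it; inactive = mean below it, under half of replicates reach it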;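 note: signal also drops with host cell toxicity which is not excluded here; 0% = plate median of DMSO wells and 100% = zero luminescence signal; higher percent means less beta-gal luminescence so fewer parasites; stock transfer was 50 nL into about 50 µL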
RanGTP-Impb inh: inhibitors of RanGTP-importin-beta interaction, primary screen, biochemical, FRET, CFP-Ran, YFP-importin-beta, homogeneous. cell-free CFP-Ran/YFP-importin-beta FRET ratio. inhibition, % (concentration not given with the values). actives 1.1% (n = 300,000);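 active = most replicates above 15%; inconclusive = exactly half above 15%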;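 note: 0% = DMSO wells and 100% = Ran loaded with GDP instead of GTP; wells of about 40 µL received 100 nL stock; the first replicate is given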
rRNA inh HTS: inhibitors of bacterial rRNA selective over humanized ribosomes. E. coli WT GFP vs humanized-ribosome RFP mutants, fluorescence, 24 h; hits give low values; DMSO median 0, no signal -100. GFP signal change (wild-type ribosome), % (test concentration not listed). actives 1.6% (n = 350,000). AID 720706;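 active = significant combined selectivity score with lowered wild-type GFP, culture density cut under 30%, mutant RFP and density less affected; inactive = any of these conditions unmet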; note: one replicate is shown; some compounds called inactive have numbers as strong as hits
Calb FLC: C. albicans growth modulation with fluconazole | actives 0.57% (n = 300,000) | growth inhibition, % (concentration not given with the values) | AID 1979 | C. albicans CaCi-2 (fluconazole-resistant clinical isolate) + fluconazole, Alamar Blue growth, 48 h;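 active = most replicates above 75%; inconclusive = exactly half above 75%; inactive = most below 75%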;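 note: all wells also contain fluconazole at 8 µg/ml as a sub-toxic cotreatment; 0% = median of DMSO wells and 100% = median of geldanamycin control wells; wells of about 8 µL received 7.5 nL stock; the first replicate is given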
rRNA inh HTS OD600: also measured in rRNA inh HTS; calls as there; OD600 change, %; measured here: OD600 growth;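 optical density of the mix in the first replicate; 0 = DMSO median and -100 = no signal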
rRNA inh HTS RFP: further read-out of rRNA inh HTS, marked with its call; RFP signal change, %; measured here: RFP humanized mutant strains;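 first replicate; 0 = DMSO median and -100 = no signal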
* marks the source's active call; other numbers are inactive results; u = inconclusive; x = not tested or not shown. Not all compounds are listed; rates above refer to the full screens.

SMILES | Vif A3G | Bfl-1 A1 inh | Beta cell apopt | MLL AF4-AF9 inh | T cruzi repl | RanGTP-Impb inh | rRNA inh HTS | rRNA inh HTS OD600 | rRNA inh HTS RFP | Calb FLC
O=C(Cn1c(=O)cnc2ccccc21)N1CCN(S(=O)(=O)c2cccc([N+](=O)[O-])c2)CC1 | 19% | 0.6 | -6 | 0.8 | 8 | 5.9 | 5 | 18 | -2.9 | -2
COc1cccc(COC(=O)c2ccc(S(=O)(=O)N3CCC(C)CC3)cc2)c1OC | 2% | -0.5 | -6 | -16 | 7 | -0.9 | 3 | 5 | -0.4 | -4
COc1cc(OC)c(C(=O)NC2CC(C)(C)NC(C)(C)C2)cc1OC | -2% | -0.9 | -5 | x | 0 | 1.2 | x | x | x | -2
CCCNS(=O)(=O)c1ccc(CCC(=O)Nc2ccc3c(c2)OCCO3)cc1 | -7% | 0.4 | 0 | 0.8 | 11 | 1.6 | -11 | 3 | -1.6 | -4
O=C(CCc1ccccc1)Nc1cc2c3c(c1)CCC(=O)N3CCC2 | -9% | 0.0 | 0 | 1.0 | 3 | -1.2 | -9 | -14 | 2.6 | 0
COc1cc(/C=N/n2c(-c3cc(C)[nH]n3)n[nH]c2=S)cc(OC)c1O | x | 2.2 | 2 | -5.5 | 8 | -2.9 | 9 | 3 | -0.3 | -7
CCOC(=O)NNc1cc(C(F)(F)F)ccn1 | x | 0.2 | 5 | -4.2 | -3 | -1.6 | 10 | 4 | 2.5 | -3
N#C/C(=C(/O)c1ccc([N+](=O)[O-])s1)c1nc2ccccc2[nH]1 | x | -3.7 | 54 | -3.2 | 55* | 2.1 | 13 | 5 | -1.2 | -6
Cc1cc(C)n2nc(SCc3nc4ccccc4[nH]3)nc2n1 | 0% | 0.5 | 3 | 0.4 | -9 | -1.8 | 1 | -1 | -1.5 | 0
COCc1cc(C(C)=O)ccc1OC | -5% | 0.7 | -6 | x | -7 | 4.0 | x | x | x | 0
CC1Oc2ccccc2N(CC(=O)c2ccccc2)C1=O (stereo not given) | 14% | -0.2 | -2 | -2.2 | 2 | 5.3 | -17 | -13 | -5.3 | -24
O=C(C[n+]1ccccc1)N/N=C/c1c(F)cccc1Cl | -10% | 0.7 | 0 | -1.5 | 1 | u | 2 | 6 | -3.4 | -1
CC(=O)c1c(C)oc2ccc(N(C(=O)C3CCCCC3)S(=O)(=O)c3cc([N+](=O)[O-])ccc3C)cc12 | x | -0.2 | 0 | x | -16 | 1.0 | x | x | x | 5
CCOc1ccccc1-n1c(SCC(=O)NCc2ccco2)nnc1-c1ccncc1 | 9% | -0.7 | 4 | x | 11 | -2.8 | x | x | x | 0
O=C1[C@@H]2C(c3cccnc3)=NO[C@@H]2C(=O)N1c1ccc2ccccc2c1 | x | 0.0 | -16 | 6.9 | -6 | 2.4 | 5 | 12 | -0.8 | -10
COc1ccc(S(=O)(=O)N(C)CC(=O)N2CCOCC2)cc1Cl | 28% | -0.3 | -2 | x | 2 | -2.0 | x | x | x | -4
N#CC1=C(N)Oc2n[nH]c(-c3cccs3)c2C1C1CCCCC1 (stereo not given) | 6% | 2.2 | -1 | x | 0 | -1.7 | x | x | x | 3
CCc1ccccc1OCC(=O)Nc1nc(-c2cccnc2)cs1 | x | 0.0 | 2 | -5.2 | 78* | 6.3 | -53 | -75 | -26 | 2
Cc1cc(SCC(=O)N2CCCC2=O)nc2ccccc12 | -7% | -0.1 | 0 | 0.6 | x | x | 1 | 1 | 0.0 | x
COc1cc(C#N)ccc1OCC(=O)NCc1cccs1 | u | -0.2 | 0 | -2.5 | -13 | 0.3 | 13 | 13 | 0.7 | -8
Cc1cc(C(=O)O)c(CCCN)s1 | 0% | -1.2 | -3 | x | -18 | 0.4 | x | x | x | u
COc1ccc(Nc2ncc(C(=O)N3CCN(c4ccccc4OC)CC3)c3ccccc23)cc1 | -7% | -0.3 | -3 | x | 10 | -1.3 | x | x | x | 6
O=C(/C=C/c1ccccc1)N1CCN(c2ccc([N+](=O)[O-])c(N3CCOCC3)c2)CC1 | 7% | 0.2 | -3 | x | 17 | -2.6 | x | x | x | -3
COc1cc(C(=O)Nc2cc(C)cc(C)c2)c(-n2cnnn2)cc1OC | -2% | -0.4 | -1 | 0.1 | 21 | 4.1 | 1 | -1 | -2.4 | 1
COc1ccc(C(=O)N2CC(c3ccc(Cl)cc3)CC2=O)cc1 (stereo not given) | x | 0.1 | 1 | -1.7 | -8 | 8.6 | x | x | x | 5
COc1ccc(N(C(=O)c2ccncc2)S(=O)(=O)c2ccc(OC)c(OC)c2)cc1 | -5% | 0.4 | -7 | -1.8 | -3 | -0.6 | 9 | 16 | 0.2 | 4
COc1ccc(N2CCN(C(=O)c3ccc(C)c(Cl)c3)CC2)cc1 | 42µM* | 1.3 | 3 | x | -3 | 0.7 | x | x | x | -7
O=C1ON=C(c2ccc(Cl)cc2)/C1=C/c1ccc(O)cc1 | 9% | 3.6 | -36 | -2.8 | -12 | 3.2 | -3 | -1 | 9.0 | -2
CCCSc1nc(=O)n2cccc(C)c2n1 | 3% | -0.1 | -16 | x | 2 | -0.5 | x | x | x | 26
O=C1/C(=C/c2ccccc2)Oc2cc(OC(=O)N3CCOCC3)ccc21 | x | -1.2 | -1 | x | -3 | -0.6 | x | x | x | -21
CC(C)CC[n+]1ccn(C2=C([O-])c3ccccc3C(=O)/C2=N\S(=O)(=O)c2ccccc2)c1 | 6% | 0.3 | 95* | x | -14 | -4.9 | x | x | x | 46
Clc1cccc(CSC2=NCCCN2)c1 | -4% | -0.3 | -4 | x | -4 | -4.4 | x | x | x | -19
Cc1cc(C)n(C(=O)c2cccc([N+](=O)[O-])c2)n1 | x | -0.1 | -4 | -6.4 | -10 | -2.6 | 16 | 7 | -1.3 | 15
O=C(O)CCCC(=O)NCCc1ccncc1 | -1% | 0.0 | -1 | x | -1 | 5.0 | x | x | x | x
O=C(Oc1ccc(Cl)c2cccnc12)C12CC3CC(CC(C3)C1)C2 | 12% | 0.2 | x | x | -5 | -3.5 | x | x | x | 30
COc1c(Br)cc([N+](=O)[O-])c(OC)c1C(=O)NC(=O)Nc1nc(C)cc(C)n1 | x | u | x | x | x | 0.0 | 21 | 9 | 1.2 | 30
Cc1ccc(S(=O)(=O)N2CCOCC2)cc1C(=O)N1CC(C)OC(C)C1 (stereo not given) | 11% | 0.5 | -6 | -0.3 | -13 | u | 6 | 9 | -1.2 | -1
COc1ccc(-n2cnc3c(sc4nccc(N(C)C)c43)c2=O)cc1 | 1% | 0.0 | -13 | x | 0 | 1.9 | x | x | x | -5
CCNCC(=O)N1c2ccccc2CCc2ccc(NC(C)=O)cc21 | 29% | -0.2 | 2 | x | 26 | u | x | x | x | 13
Cc1c(C(=O)N/N=C/c2ccoc2)cccc1[N+](=O)[O-] | 6% | 1.8 | -6 | -1.4 | -6 | 1.4 | 1 | 11 | -0.2 | 2

Arranged by formula weight (rising): three of the compounds above
SMILES | Vif A3G | Bfl-1 A1 inh | Beta cell apopt | MLL AF4-AF9 inh | T cruzi repl | RanGTP-Impb inh | rRNA inh HTS | rRNA inh HTS OD600 | rRNA inh HTS RFP | Calb FLC
O=C(O)CCCC(=O)NCCc1ccncc1 | -1% | 0.0 | -1 | x | -1 | 5.0 | x | x | x | x
Clc1cccc(CSC2=NCCCN2)c1 | -4% | -0.3 | -4 | x | -4 | -4.4 | x | x | x | -19
CC(C)CC[n+]1ccn(C2=C([O-])c3ccccc3C(=O)/C2=N\S(=O)(=O)c2ccccc2)c1 | 6% | 0.3 | 95* | x | -14 | -4.9 | x | x | x | 46

The results go on:
SMILES | Vif A3G | Bfl-1 A1 inh | Beta cell apopt | MLL AF4-AF9 inh | T cruzi repl | RanGTP-Impb inh | rRNA inh HTS | rRNA inh HTS OD600 | rRNA inh HTS RFP | Calb FLC
Cc1ccc2c(c1)COc1c3ccc(C(=O)N[C@@H](CO)C(C)C)cc3nn1-2 | 24% | -2.2 | -2 | 1.7 | 12 | 5.7 | -36 | -29 | -7.3 | 20
CC(=O)c1cc(Cl)ccc1OCc1cccc(S(=O)(=O)N2CCOCC2)c1 | 0% | 0.2 | 8 | 0.4 | 11 | 1.0 | -15 | -32 | -4.6 | 7
CCOc1ccc(C(=O)CCC(=O)Nc2cccc(S(=O)(=O)N3CCCCC3)c2)cc1 | -4% | 0.5 | -3 | 1.8 | x | x | 7 | -8 | 0.0 | x
Cc1ccc(NC(=O)COC(=O)c2ccc(F)cc2Cl)c(Br)c1 | 1% | -0.1 | -2 | 0.5 | 2 | 1.0 | 9 | 11 | -0.3 | -38
Cc1ccc(S(=O)(=O)N2CCN(C(=O)COC(=O)CSc3ccccc3)CC2)c(C)c1 | 6% | 0.2 | 2 | -0.6 | 13 | 4.8 | 8 | 6 | 1.7 | 0
COc1ccccc1-n1c(CNC(=O)c2ccco2)n[nH]c1=S | x | 1.8 | -2 | -9.4 | -16 | 1.3 | 28 | 24 | 1.7 | 8
Cc1nn(C)cc1CNC(=O)c1ccc(F)cc1 | x | -0.3 | 1 | 4.0 | -1 | -0.1 | 4 | 8 | -1.3 | 40
CCOC(=O)c1c(NC(=O)CN2C(=O)NC3(CCC(CC)CC3)C2=O)sc(C)c1-c1ccc(C)cc1 (stereo not given) | x | -1.5 | -1 | -1.2 | 7 | -0.6 | -5 | -1 | -5.6 | 4
CCOC(=O)CNC(=O)N1CCC(CCC(=O)N(C)Cc2ccccc2)CC1 | x | 0.6 | x | -4.2 | -25 | -0.3 | 14 | 18 | 2.3 | -3
O=C(N/N=C/c1ccncc1)NC12CC3CC(CC(C3)C1)C2 | 16% | 0.1 | x | -3.3 | 25 | 1.7 | -5 | -19 | -1.7 | 0
NC(=O)c1c(/N=C/c2cccs2)sc2c1CCCC2 | 0% | -2.1 | -1 | 0.2 | -2 | -2.1 | x | x | x | 2
Cc1ccc(C(C)NC(=O)Cc2cccs2)c(C)c1 (stereo not given) | x | 1.1 | 1 | 0.5 | -15 | -1.4 | 2 | 6 | 2.6 | 5
CCOc1ccc(NC(=O)CN(C)C(=O)Cn2c(=O)oc3ccccc32)cc1OCC | -6% | 0.9 | -2 | -7.5 | -9 | 1.8 | 17 | 20 | 0.4 | -2
O=C(OCc1cc2ccccc2[nH]c1=O)c1ccccn1 | 8% | 1.8 | x | x | 0 | -3.1 | x | x | x | -6
CC(=O)N1CCN(c2ccc(NCc3ccc(F)cc3)cc2)CC1 | u | 1.2 | 5 | 10.0 | -8 | 4.4 | -1 | -3 | 1.4 | -1
COc1ccc(C(CNC(=O)C(C)Oc2ccc(Br)cc2)N2CCCC2)cc1 (stereo not given) | -6% | -0.7 | x | -12 | -22 | -0.3 | 5 | 1 | 1.8 | 1
Cc1noc(C)c1S(=O)(=O)N(CC(=O)NCc1ccccc1)c1ccc(C(C)C)cc1 | 4% | -1.5 | 2 | 0.8 | 18 | -1.8 | 1 | 16 | -0.5 | 2

Screening data from PubChem.
